# Compound activity as filed in PubChem.
# Bfl-1 A1 inh: caspase 3/7 activation in MEF A1-2A-BIM cells, primary screen, A1 inhibitor project, cell-based, luminescence, HTS. caspase activation, % (test concentration not listed). AID 2462, 2010. 330,000 tested, 0.066% active. Caspase-Glo 3/7 luminescence, 3 h; percent of clofoctol response, vehicle zero;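 active = over half of replicate activation scores above 10%, or exactly half above 10 with the replicate mean above 10; inconclusive = replicate mean below 10 yet half the replicates above 10; inactive = over half of replicates below 10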;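 note: wells of about 30 µL received 50 nL stock; many hits fall short of the cut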
# B2AR ag: beta2AR agonists driving receptor internalization, primary screen, cell-based, FAP fluorogen, flow cytometry; Am2.2-beta2AR cells; reference of the scale not given here; response, % (concentration not given with the values); 340,000 tested, 0.43% active; AID 504454, 2011;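 active = response above a set limit, near 3 SD of response in nonfluorescent compounds, cut at about 42% in these data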;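 note: stock transfer was 100 nL into about 11 µL; a reference agonist was the positive control; negative values mostly stem from fluorescent compounds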
# Target sequence (P07550 whole entry, looked up): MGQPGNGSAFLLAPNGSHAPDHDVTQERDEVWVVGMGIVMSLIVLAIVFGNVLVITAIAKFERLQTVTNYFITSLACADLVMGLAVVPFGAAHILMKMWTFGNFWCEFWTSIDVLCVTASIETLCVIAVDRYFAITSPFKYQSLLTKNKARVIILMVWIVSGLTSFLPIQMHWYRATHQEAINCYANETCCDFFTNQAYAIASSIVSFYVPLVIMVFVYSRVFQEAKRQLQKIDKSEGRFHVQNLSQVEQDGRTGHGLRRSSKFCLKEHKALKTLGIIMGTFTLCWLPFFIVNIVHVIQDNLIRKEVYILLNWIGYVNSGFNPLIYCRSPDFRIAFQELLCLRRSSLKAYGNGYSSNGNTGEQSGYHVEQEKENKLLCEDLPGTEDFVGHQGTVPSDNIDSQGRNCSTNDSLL
# T cruzi inh: inhibitors of intracellular T. cruzi growth, primary screen, luminescence, NIH3T3 host cells | T. cruzi beta-gal in NIH3T3, 90 h | inhibition, % (test concentration not listed) | 300,000 tested, 1.4% active;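 active = mean inhibition across valid replicates above about 55%, limit read from the data; inconclusive = mean below that limit but half or more replicates reach it; inactive = mean below it, under half of replicates reach it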;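 note: signal also drops with host cell toxicity which is not excluded here; 0% = plate median of DMSO wells and 100% = zero luminescence signal; higher percent means less beta-gal luminescence so fewer parasites; stock transfer was 50 nL into about 50 µL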
# UCH37 inh: inhibitors of human UCH37 deubiquitinase, primary screen, biochemical, Ub-AMC cleavage, fluorescence | purified proteasome/UCH37 | inhibition, % (concentration not given with the values) | 330,000 tested, 0.33% active | AID 588478, 2011;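 active = mean of two replicates above 20%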;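 note: 0% = compound-free wells with enzyme and 100% = wells lacking proteasome; stock transfer was 100 nL into about 20 µL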
# Target sequence (Q9Y5K5 whole entry, looked up): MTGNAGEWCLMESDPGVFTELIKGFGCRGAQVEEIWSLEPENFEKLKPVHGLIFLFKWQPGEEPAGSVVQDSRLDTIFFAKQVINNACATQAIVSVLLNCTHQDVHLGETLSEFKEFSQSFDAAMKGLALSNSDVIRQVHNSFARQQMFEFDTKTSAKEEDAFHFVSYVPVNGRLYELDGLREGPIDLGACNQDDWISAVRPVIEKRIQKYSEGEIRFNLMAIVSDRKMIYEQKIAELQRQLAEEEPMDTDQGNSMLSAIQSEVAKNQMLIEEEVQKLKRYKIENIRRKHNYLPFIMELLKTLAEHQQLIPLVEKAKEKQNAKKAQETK
#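 System: Proteasome-associated human UCH37 deubiquitinase; Input: 0.15 nM proteasome in added enzyme buffer; Also added: Ub-AMC substrate from 1 µM stock; Incubation: 30 min compound-proteasome preincubation then 25 min substrate reaction, room temperature; Detection: fluorescence, ex 355 nm, em 460 nm; Read-out: % inhibition of Ub-AMC cleavage fluorescence; Benchmarks: no-proteasome and no-compound wells.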
# Calb FLC: C. albicans growth inhibition with fluconazole, primary screen, CaCi-2 strain, Alamar Blue fluorescence | C. albicans CaCi-2 (fluconazole-resistant clinical isolate) + fluconazole, 48 h | growth inhibition, % (no concentration beside the values) | 300,000 tested, 0.57% active;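 active = most replicates above 75%; inconclusive = exactly half above 75%; inactive = most below 75%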;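 note: all wells also contain fluconazole at 8 µg/ml as a sub-toxic cotreatment; 0% = median of DMSO wells and 100% = median of geldanamycin control wells; wells of about 8 µL received 7.5 nL stock; the first replicate is given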
# LANA-H2B inh: blockers of LANA interaction with H2A/H2B – biochemical, FP readout, HTS, primary screen. cell-free LANA-H2A/H2B peptide, fluorescence polarization. 320,000 tested, 0.6% active. Protein LANA1 (Human herpesvirus 8 type P (isolate GK18)), Q9QR71. inhibition, % (no concentration beside the values); in the data active = inhibition mostly above about 10%, no sharp cut-off; inactive = mostly below about 6.7%;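 note: stock transfer was 7.5 nL into about 10 µL; 0% = median of vehicle wells and 100% = median of positive control wells; one replicate is shown; the record names a cut of 25% in any replicate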
# RanGTP-Imp inh: inhibitors of RanGTP-importin-beta interaction, primary screen, biochemical, FRET, CFP-Ran, YFP-importin-beta, homogeneous; cell-free CFP-Ran/YFP-importin-beta FRET ratio; 300,000 tested, 1.1% active; inhibition, % (concentration not given with the values); AID 2216, 2009; Ran GTPase (GTP-bound) - importin-beta complex;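 active = most replicates above 15%; inconclusive = exactly half above 15%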;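 note: 0% = DMSO wells and 100% = Ran loaded with GDP instead of GTP; wells of about 40 µL received 100 nL stock; the first replicate is given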
# Beta apoptosis: inhibitors of cytokine-induced beta cell apoptosis, primary screen, luminescence. INS-1E cytokine-induced death, ATP luminescence, 48 h; percent of positive-control rescue, neutral wells zero. protection from apoptosis, % (concentration not given with the values). 300,000 tested, 0.8% active. AID 435005, 2010;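 active = all replicates at 75% or more, or half of them and the mean; inconclusive = half reach 75% but not the mean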;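 note: 0% = cytokine-treated negative control wells and 100% = positive control rescue; higher means more ATP so stronger rescue from cytokine killing; wells of about 40 µL received 100 nL stock; the first replicate is given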
# An asterisk follows results filed as active; ? = inconclusive; . = not tested or not shown.
# Below each SMILES: Bfl-1 A1 inh	B2AR ag	T cruzi inh	UCH37 inh	Calb FLC	LANA-H2B inh	RanGTP-Imp inh	Beta apoptosis
CC(=NCc1ccc2c(c1)OCO2)c1c(O)[nH]c(=O)[nH]c1=O
    -0.6	-6.2	-13.3	2.7	-2.1	4.6	0.8	-3.2
O=C(CCCN1CCC(n2c(=O)[nH]c3ccccc32)CC1)c1ccc(F)cc1
    0.3	-6.7	.	4.8	.	-5.3	.	6.4
c1cncc(CNC2=NCCCCC2)c1
    -0.7	0.8	-2.8	1.6	5.7	-3.2	5.1	-2.0
O=C(O)Cn1cc(/C=C2\C(=O)NC(=O)N(c3ccc(Cl)cc3)C2=O)c2ccccc21
    -0.9	2.5	12.5	5.1	4.4	-3.6	2.2	-4.0
COc1ccc(-c2cc(C(F)(F)F)n3nc(C(=O)N4CCC5(CC4)OCCO5)cc3n2)cc1OC
    0.1	2.4	-15.9	-6.7	4.8	-0.5	7.4	1.5
CCC(=NCCc1c[nH]c2ccccc12)c1c(O)n(-c2ccc(C)cc2)c(=O)[nH]c1=O
    -0.3	14.3	-12.0	-0.7	-3.0	-1.5	1.4	0.6
Cc1cc(OC(=O)CCNC(=O)OC(C)(C)C)c2c3c(c(=O)oc2c1)CCC3
    -0.4	2.7	-11.8	-1.8	-0.2	-5.2	8.2	3.8
Cc1ccc(-n2c(C)nc3ccccc3c2=O)cc1C
    -0.8	3.1	-44.4	0.6	-1.8	-2.4	6.6	-3.7
C=CCN1C(=O)NC(=O)/C(=C/C=C/c2ccccc2)C1=O
    .	74.6*	-20.0	0.7	-4.7	.	3.1	.
CC(C)C/C(=N/O)c1cn(C)c2ccccc12
    -0.7	-6.6	-8.8	.	-13.8	-1.8	-1.5	-13.3
CCOc1ccc(N2C(=O)/C(=C/c3ccco3)C(=O)NC2=S)cc1
    0.5	13.1	-19.2	29.4*	2.6	6.2	1.9	-1.7
COC(=O)C1=C(c2ccc(F)cc2OCc2ccccc2)C[C@@H]2CC[C@H]1N2C(=O)NCCc1ccc(F)cc1
    -0.6	1.1	.	0.5	.	1.7	.	8.2
Fc1ccccc1CNCCc1c[nH]c2ccccc12
    2.2	-9.3	10.3	7.3	-0.2	9.2	-5.9	-0.6
O=C1CN(O)C(c2ccccc2)=c2cc(Cl)ccc2=N1
    1.2	-1.8	-10.6	2.3	5.8	-1.1	0.2	-5.1
C=CCn1c(O)c(C(C)=Nc2ccc(C(=O)O)cc2)c(=O)[nH]c1=O
    -0.3	-8.5	-1.9	4.1	-7.5	0.6	-0.5	0.9
CCCC[N+]12CCC(CC1)C(C(O)(c1ccccc1)c1ccccc1)C2 (configuration not stated)
    0.2	-3.5	-10.0	.	-27.5	0.4	?	-5.1
CC(Cc1ccccc1)NC(=O)/C=C/C(=O)O (configuration not stated)
    -0.5	9.0	-1.1	3.9	16.4	-1.5	2.3	-7.3
Cc1ccc2c(c1)C1CN(C)CCC1N2S(=O)(=O)c1ccccc1 (configuration not stated)
    0.0	3.7	13.3	0.2	-10.5	-3.2	-4.4	4.0
O=C1NC(=O)N(c2ccccc2F)C(=O)/C1=C/c1ccc(Oc2ccc([N+](=O)[O-])cn2)cc1
    -1.6	1.6	-11.7	4.7	-10.4	7.6	-0.9	-5.9
Cc1ccsc1C(=O)C1CCCN(Cc2cccc(-n3cccn3)c2)C1 (configuration not stated)
    0.1	-4.8	41.1	2.9	-7.6	0.1	-0.9	-3.5
O=C1c2ccccc2C2(c3ccc(Cl)cc3)NCCN12 (configuration not stated)
    0.7	5.5	2.9	3.9	2.7	1.3	2.7	-3.3
O=C(Cn1cnc2sc3c(c2c1=O)CCCC3)NCCCC(=O)N1CCC2(CC1)OCCO2
    0.5	-25.6	5.4	3.3	-4.3	-1.1	7.9	-1.9
Cc1cc(OC(C)C(=O)N[C@H](C(=O)O)c2ccccc2)c2c3c(c(=O)oc2c1)CCC3 (some centres not stated)
    1.4	-7.0	3.4	-227.7	-3.8	0.8	4.2	-5.5
CCOC(=O)C1CN(C)CCC1=O (configuration not stated)
    0.9	-0.4	-15.4	1.1	6.8	4.4	1.4	-9.4
O=C(COC(=O)c1ccccc1)Nc1ccc(Cl)cc1C(=O)c1ccccc1
    -0.6	-29.6	8.6	0.8	4.2	2.1	3.4	-4.0
CCS(=O)(=O)Nc1cccc(C(=C2CCCCC2)c2cnc[nH]2)c1
    -0.7	-8.7	.	3.8	.	0.7	.	-2.4
CC[C@]12C=CCN3CCC4(c5cc(Br)c(OC)cc5N(C)C4[C@@](O)(C(=O)OC)[C@@H]1OC(C)=O)C32 (some centres not stated)
    1.2	-1.3	2.6	2.5	-13.4	-3.1	-0.1	-7.1
Cc1ccc(NC(=O)c2cn(CCC#N)nc2-c2ccc3c(c2)OCCO3)c([N+](=O)[O-])c1
    -1.6	-21.8	0.9	5.6	-6.1	0.1	?	1.7
COc1nc2ccccc2c(=O)n1-c1ccc(Cl)cc1
    ?	0.9	21.5	-1.3	-11.4	-0.7	?	4.3
O=c1[nH]c(=S)n(Cc2ccc(F)cc2)c(O)c1/C=N/N1CCCCC1
    1.0	-7.4	-6.8	4.3	-5.4	1.3	-5.0	-12.1

# Gathered by group, the compounds so far with a thiophene ring, fused or not (two)
# Below each SMILES: Bfl-1 A1 inh	B2AR ag	T cruzi inh	UCH37 inh	Calb FLC	LANA-H2B inh	RanGTP-Imp inh	Beta apoptosis
Cc1ccsc1C(=O)C1CCCN(Cc2cccc(-n3cccn3)c2)C1 (configuration not stated)
    0.1	-4.8	41.1	2.9	-7.6	0.1	-0.9	-3.5
O=C(Cn1cnc2sc3c(c2c1=O)CCCC3)NCCCC(=O)N1CCC2(CC1)OCCO2
    0.5	-25.6	5.4	3.3	-4.3	-1.1	7.9	-1.9

# Following part:
# Below each SMILES: Bfl-1 A1 inh	B2AR ag	T cruzi inh	UCH37 inh	Calb FLC	LANA-H2B inh	RanGTP-Imp inh	Beta apoptosis
CCC(=O)N1CC(=O)Nc2ccc(Br)cc2C1c1ccccc1 (configuration not stated)
    0.0	1.5	-11.6	0.8	-3.6	2.5	-5.9	-6.7
CC(C)N1CCN(c2ccc(O)cc2)CC1
    0.2	0.0	-17.6	3.1	-6.1	-1.3	-1.5	-1.2
C#CC1(OC(=O)c2ccccc2)CC(C)N(C)CC1C (configuration not stated)
    1.0	-2.7	-3.4	7.7	-0.1	-6.2	-1.6	-15.6
CN(C)S(=O)(=O)c1cc(NC(=O)COC(=O)Cc2ccccc2)ccc1Cl
    0.6	13.0	1.0	6.1	-6.1	-2.3	?	-2.8
COc1ccc(OCC(=O)Nc2ccc(Cl)cc2C(=O)c2ccccc2)cc1
    0.9	6.6	2.9	-0.2	-5.4	-6.1	0.3	-1.6
CCCc1[nH]nc2c1C1(C(=O)N(Cc3ccccc3)c3ccccc31)C(C(=O)OC)=C(N)O2 (configuration not stated)
    -0.3	8.1	23.9	5.6	10.0	3.5	-1.8	0.6
CCCCCCCn1c(=O)c(C(=O)Nc2cnccn2)c(O)c2ccccc21
    -0.6	-0.9	6.2	-2.3	35.5	-3.7	-2.1	66.8
CN1C(=O)C(=Cc2cn(CC(=O)N3CCCCC3)c3ccccc23)C(=O)N(C)C1=O
    0.0	3.1	5.7	3.3	-7.8	4.0	-3.1	3.6
Fc1ccc(CN2CCN(c3ccc(Cl)cc3)CC2)cc1
    1.4	-2.3	-3.5	4.7	-44.5	4.4	3.8	-3.3
O=C(O)c1ccccc1-c1ccc(C=C2C(=O)N(c3ccccc3)C(=S)N(c3ccccc3)C2=O)o1
    0.1	-6.4	-2.5	0.1	-20.8	-11.1	1.7	0.2
O=C1NC(=O)C(CCc2ccncc2)(Cc2ccc3c(c2)OCO3)C(=O)N1CCc1ccccc1 (configuration not stated)
    -0.8	18.6	8.8	4.7	10.5	1.2	0.9	-1.2
Cc1ccc(N=C(N(C)C)P(=O)(N(C)C)N(C)C)cc1
    0.3	-2.2	-7.3	.	-6.9	1.6	-1.3	.
COC(=O)C1=C(c2ccc(OC(F)(F)F)cc2)C[C@@H]2CC[C@H]1N2C(=O)NCCOc1ccccc1Cl
    -0.3	-8.0	.	4.3	.	5.8	.	-1.3
O=C(N=Nc1c(O)[nH]c(=O)[nH]c1=O)C1COc2cc3ccccc3cc2O1 (configuration not stated)
    -0.5	-1.9	-6.2	12.6	22.2	3.8	4.6	-5.5
C[C@]12C[C@@H](O)[C@H](O)CC1=CCC1C2CC[C@]2(C)C(=O)CCC12 (some centres not stated)
    0.7	1.5	.	3.7	.	-2.5	.	-8.2
N=c1c[n+](C2CCCCC2)[n-]o1
    -0.5	-1.4	-4.8	3.4	-6.3	0.3	4.2	3.0
CC1(C)CC[C@]2(C)CC[C@]3(C)C4C[C@@H]5OO[C@@]6(O5)C(CCCC6(C)C)[C@]4(C)CC[C@@]3(C)C2C1 (some centres not stated)
    0.4	11.2	.	3.5	.	2.7	.	.
O=C1NC(=O)N(CCNc2ncc(C(F)(F)F)cc2Cl)C(=O)C1/C=N/OCc1c(F)cccc1Cl (configuration not stated)
    0.4	-4.3	-1.3	.	-26.5	-1.4	0.2	-2.4
COc1cc(N)c(Cl)cc1C(=O)NC1CN2CCC1CC2 (configuration not stated)
    -0.7	.	-0.1	4.9	.	-0.5	1.8	.
CCC(C(=O)N1CCC2(CC1)OCCO2)n1c2ccccc2c2nc(=O)cc(C)n21 (configuration not stated)
    0.1	10.9	0.5	-1.9	1.9	2.7	-0.7	-7.2
CCc1ccccc1N1C(=O)/C(=C/c2ccc(N3CCN(C)CC3)o2)C(=O)NC1=S
    0.1	9.2	7.3	15.7	-2.1	-51.3	-4.1	-1.3
CN1CC=C(/C=C/c2ccc(-c3ccccc3)cc2)CC1
    -5.2	.	69.8*	-16.1	-15.5	-1.7	2.2	71.1
Cc1sc2ncn(CC(=O)NCCCC(=O)N3CCC4(CC3)OCCO4)c(=O)c2c1C
    -0.3	-4.7	.	4.4	.	2.9	.	.
CCOC(=O)c1cccc(NC(=O)c2c(O)[nH]c(=O)[nH]c2=O)c1
    1.8	-6.0	-7.8	0.5	-6.9	2.6	?	-2.2
Cc1sc2ccccc2c1CC1=NCCN1
    -0.4	-5.2	.	-16.4	.	-2.3	.	2.0
CCCCc1ccc(C(=O)O)nc1
    -0.6	-1.4	.	0.5	.	5.5	.	-0.9

# Not all compounds are listed (hit frequency here may not be typical).
